High-throughput results (PubChem BioAssay)
Rhodamine autofl – compound autofluorescence in rhodamine spectral region | Rhodamine-region fluorescence, 547/598 nm, Tris buffer; stronger effect = higher value | max dye-equivalent concentration, M | actives 0.05% (n = 59,000); in the data active = max dye-equivalent concentration above about 11 nM; inconclusive = between about 1.1 nM and that limit
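Intrinsic compound fluorescence, ex 547 / em 598 nm, CCD imager. Tris 100 mM pH 8.0; 15 min RT. Output = rhodamine dye-equivalent concentration at each compound concentration.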
BRCT PPI red – inhibitors of human BRCA1 BRCT-phosphoprotein interaction (red fluorophore) | P38398 | actives 0.03% (n = 75,000) | AID 892 | BRCT-phosphopeptide binding, red fluorescence polarization | Potency, µM (top dose mostly 76.9 µM), for inactives: at the top dose activity change, negative = inhibition, most hits filed as inhibitors; note: % is set by controls: 0 for no effect and ±100 for the full control effect
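Fluorescence polarization: 100 nM His-tagged BRCA1 BRCT with 100 nM TAMRA-labelled phospho-BACH1 decapeptide, phosphate buffer pH 7.3 with 150 mM NaCl, DTT, 0.01% Tween 20; 12 min RT. Binding inhibition seen as FP decrease.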
ALOX15 inhib – inhibitors of human 15-lipoxygenase (ALOX15); P16050; purified 15hLO-1, xylenol orange hydroperoxide absorbance; Potency, µM (highest dose often 57.1 µM), for inactives: at the top dose activity change, negative = inhibition, most hits filed as inhibitors; actives 1.4% (n = 74,000); AID 887; note: potency is the fitted concentration of half-maximal effect; % is set by controls: 0 for no effect and ±100 for the full control effect; nearly all actives have a fitted effect of over 55% in size
Target sequence (P16050 whole entry, looked up): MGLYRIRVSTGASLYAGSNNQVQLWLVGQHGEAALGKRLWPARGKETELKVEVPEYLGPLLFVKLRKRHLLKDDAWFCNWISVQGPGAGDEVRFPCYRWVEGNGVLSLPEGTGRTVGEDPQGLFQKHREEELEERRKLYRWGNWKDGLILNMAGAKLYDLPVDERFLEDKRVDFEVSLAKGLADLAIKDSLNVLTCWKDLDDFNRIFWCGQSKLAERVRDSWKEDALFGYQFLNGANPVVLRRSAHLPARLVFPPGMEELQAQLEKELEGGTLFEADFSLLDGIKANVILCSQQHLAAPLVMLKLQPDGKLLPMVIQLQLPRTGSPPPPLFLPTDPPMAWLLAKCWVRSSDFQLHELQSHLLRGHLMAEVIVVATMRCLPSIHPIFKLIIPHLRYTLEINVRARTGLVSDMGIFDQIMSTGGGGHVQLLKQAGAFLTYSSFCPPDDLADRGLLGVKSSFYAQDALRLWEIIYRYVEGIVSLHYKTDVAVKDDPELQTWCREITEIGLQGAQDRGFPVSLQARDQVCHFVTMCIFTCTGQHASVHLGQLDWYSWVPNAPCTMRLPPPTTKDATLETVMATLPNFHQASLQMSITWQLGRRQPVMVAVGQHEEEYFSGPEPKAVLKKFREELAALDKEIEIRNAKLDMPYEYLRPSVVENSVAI
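Purified human 15hLO-1 (40 nM final) in 25 mM Hepes pH 7.5, 0.01% Triton X-100 was preincubated with compound 15 min at room temperature, then reacted 6 min with 50 uM arachidonic acid; hydroperoxide detected by Fe-XO, 573/405 nm absorbance ratio.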
Tau fil binding – binds recombinant human tau filaments. AID 596. P10636. actives 2% (n = 71,000). Potency, µM (highest dose often 57.1 µM), inactives show at the top dose activity change, negative = inhibition. recombinant tau filaments, thioflavin S fluorescence, 15 h; filaments grown with octadecylsulfate alongside compound;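 note: potency is the fitted concentration of half-maximal effect; % is set by controls: 0 for no effect and ±100 for the full control effect; actives lower thioflavin S fluorescence by blocking filaments or displacing dye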
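Thioflavine S fluorescence (ex 450, em 510 nm) reports filaments formed from 1 uM human tau plus 30 uM ODS over 15 h at 37 C (10 mM HEPES pH 7.4, 100 mM NaCl, 5 mM DTT); compounds displacing dye or blocking filaments lower signal.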
HADH2 inh – HADH2 (human) dehydrogenase inhibition; Q99714; recombinant HADH2, NADH fluorescence, beta-hydroxybutyryl-CoA; Potency, µM (top dose mostly 57.1 µM), without a hit: top-dose activity change, negative = inhibition, actives largely listed as inhibitors; actives 3.4% (n = 73,000); note: potency is the fitted concentration of half-maximal effect; % is set by controls: 0 for no effect and ±100 for the full control effect; nearly all actives have a fitted effect of over 60% in size; many of its hits are not listed in these tables
Target sequence (Q99714 whole entry, looked up, one chain of several): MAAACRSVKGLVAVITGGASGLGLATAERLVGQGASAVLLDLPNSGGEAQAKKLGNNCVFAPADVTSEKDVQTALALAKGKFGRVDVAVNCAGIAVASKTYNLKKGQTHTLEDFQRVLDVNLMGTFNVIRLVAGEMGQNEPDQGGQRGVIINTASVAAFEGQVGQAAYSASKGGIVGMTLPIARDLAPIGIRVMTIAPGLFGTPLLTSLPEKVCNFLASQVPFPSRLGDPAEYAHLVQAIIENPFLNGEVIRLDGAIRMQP
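Read-out: 360 nm excitation, 450 nm emission, kinetic over 4 min. Conditions: His-tagged human HADH2 20 nM, pH 9.0 Tris with Tween-20, 1 mM NAD+, 90 uM beta-hydroxybutyryl-CoA.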
BRCT inh green – blocks human BRCA1 BRCT binding to phosphopeptide, green readout. P38398. BRCA1 BRCT-phosphopeptide binding, green fluorescence polarization. Potency, µM (highest dose often 76.9 µM), without a hit: at the highest dose activity change, negative = inhibition, hits mostly inhibitors. actives 0.05% (n = 75,000). AID 875;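 note: potency is the fitted concentration of half-maximal effect; plate controls were peptide without protein for full effect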
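Fluorescence polarization: His-tagged BRCT (~35 kDa BRCA1 C-terminus, 250 nM) bound to 100 nM fluorescein-labeled phosphorylated 10-aa BACH1 peptide, pH 7.3 phosphate buffer with DTT and Tween 20. Compounds incubated 12 min at room temperature; inhibition read as lowered polarization.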
USP2a inhib – inhibitors of human ubiquitin-specific protease USP2a; O75604; USP2a enzymatic assay, qHTS inhibition; Potency, µM (series often up to 38.3 µM), without a hit: top-dose activity change, negative = inhibition, usual class: inhibitors; actives 0.1% (n = 60,000);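 note: potency is the fitted concentration of half-maximal effect; nearly all actives have a fitted effect of over 60% in size; plate controls were DMSO for no effect and NEM full inhibition control for full effect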
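Coupled readout: USP2-cleaved Ub-PLA2 (20nM final) turns over NBD C6-HPC (20uM final), Ex 460nm/Em 535nm after 2.5 h, time-zero read flagging artifacts. Enzyme (20nM final, pH 8.0 Tris) given 30 min RT with compound first; NEM defines full inhibition.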
HEK293 cAMP cs – counter-screen for TSHR agonists: cAMP increase in parental HEK293. Potency, µM (titrated, usually from 57.1 µM), for inactives: at the highest dose activation, actives largely listed as activators. parental HEK293 CNG cAMP sensor, membrane potential fluorescence. actives 2.5% (n = 73,000). AID 938; note: potency is the fitted concentration of half-maximal effect; % of control where 0% means no effect; nearly all actives have a fitted effect of over 55% in size
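Parental HEK 293 cells stably expressing a cAMP-gated CNG channel were loaded with membrane potential dye containing 100 uM RO 20-1724 for 60 min. Compound added for 30 min; depolarization read as fluorescence intensity at 590 nm.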
DNA Pol III inh – blocks replication by bacterial DNA polymerase III holoenzyme | reconstituted DNA polymerase III holoenzyme replication, biochemical | actives 0.25% (n = 71,000) | Potency, µM (series often up to 57.1 µM), for the others: at the highest dose activity change, negative = inhibition; note: potency is the fitted concentration of half-maximal effect; % is set by controls: 0 for no effect and ±100 for the full control effect
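Reconstituted *E. coli* holoenzyme (0.35 nM Pol III, 1 nM beta, 154 nM SSB, 2 nM primase) was preincubated with compound for 15 min at RT. Synthesis on 1.4 nM ssM13Gori ran 35 min, then was stopped with PicoGreen/EDTA and read as dsDNA fluorescence.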
* hit, by the source's call; i = inactive; u = inconclusive; x = no result given; [ ] = dose if it differs, or a comment. Unless noted, calls come from the whole dose curve; as a rule, active = well fitted curve in the direction sought with a large enough effect; inconclusive = small, poorly fitted or top-dose-only effect, or another doubt; inactive = no such curve, though single readings can be large; an effect the other way counts as inactive or inconclusive. Only part of the results is shown; count on the stated rates, not on these rows.

entry	SMILES	Rhodamine autofl	BRCT PPI red	ALOX15 inhib	Tau fil binding	HADH2 inh	BRCT inh green	USP2a inhib	HEK293 cAMP cs	DNA Pol III inh
1	Fc1ccc2nc3[nH]c4ccccc4c3nc2c1	i	-1.3%	-10%	-26%	8%	-2.6%	3%	6%	-15%
2	CN(C)c1ncc2nc(-c3cccs3)c(=O)n(CCc3ccccc3)c2n1	i	-1.7%	2%	198%	12%	-7.2%	76%[activator]	22%	-7%
3	CCOc1ccc2nc(NCCNC(=O)Nc3ccccc3)c(C#N)cc2c1	i	-0.2%	-3%	i	17%	-2.1%	72%[activator]	20%	-8%
4	CCN(CC)S(=O)(=O)c1cccc2cc(C(=O)O)c(O)cc12	i	-0.5%	-11%	11%	17%	-1.5%	u	11%	-4%
5	COCCCn1c(=NC(=O)c2ccc3c(c2)OCO3)c(C#N)cc2c(=O)n3cccc(C)c3nc21	i	-0.1%	-5%	62%	20%	-2.0%	10%	-4%	1%
6	Cc1ccc2nc3c(cc(C#N)c(=O)n3CCN3CCOCC3)c(=O)n2c1	i	-0.2%	4%	26%	u	-2.5%	-5%	4%	-3%
7	CCCCNC(=O)c1cc2c(=O)n3cccc(C)c3nc2n(Cc2ccncc2)c1=N	i	0.2%	-3%	151%	-2%	-2.7%	32%[activator]	-9%	2%
8	Cc1ccc(-n2nc(C)c3c(-c4cccs4)c(C#N)c(N)nc32)cc1	i	1.8%	-20%	37%	u	6.0%	33%[activator]	u	-5%
9	CCC1(CC)Nc2ccccc2C(=O)N1c1ccc(NC(C)=O)cc1	i	0.2%	9%	-14%	25µM*	-1.7%	0%	2%	-3%
10	CCCOC(=O)C1=C(C)NC2=C(C(=O)CCC2)C1c1cccc(OC)c1OC (stereo not drawn)	x	-2.2%	3%	-4%	u	-1.4%	16%	13%	-8%
11	CCOc1ccc2[nH]c(=O)c(CN(Cc3nnnn3CCc3ccccc3)CC3CCCO3)cc2c1 (stereo not drawn)	i	-1.8%	-10%	30%	-7%	2.2%	140%[activator]	u	-5%
12	CCCn1nc(NC(=O)c2ccco2)c2cc3ccc(C)cc3nc21	i	0.4%	-30%	236%	-12%	-1.3%	8%	14%	-3%
13	CN(C(=O)NC(=O)C1=C(N2CCOCC2)/C(=C/c2ccccc2)CC1)S(C)(=O)=O	i	-0.1%	0%	1%	-8%	-0.6%	u	9%	-7%
14	Cn1c(N)c(S(=O)(=O)c2ccc(Br)cc2)c2nc3ccccc3nc21	i	-1.4%	u	84%	32µM*	3.3%	44%[activator]	-30%[inhibitor]	4%
15	O=C(CN1C(=O)c2cccc3cccc1c23)N1CCN(c2ccc(F)cc2)CC1	i	0.1%	6%	-5%	19%	1.0%	1%	-1%	0%
16	COc1ccc(C2(CNC(C)=O)CCCC2)cc1OC	x	-0.4%	17%	-3%	7%	0.2%	7%	u	1%
17	O=C(O)c1cc(-c2cccs2)nc2cc3c(cc12)OCCO3	x	-0.6%	-28%	-9%	16µM*	0.6%	x	1%	-7%
18	CCOC(=O)c1cc2c(=O)n3ccccc3nc2n(CCCOC)c1=NC(=O)C(C)(C)C	i	0.0%	-1%	8%	u	-0.8%	8%	3%	-1%
19	COCCn1c(=O)c(-c2cc(F)cc(F)c2)nc2cnc(N3CCNCC3)nc21	i	-1.1%	-3%	3.2µM*	154%[activator]	-3.2%	92%[activator]	-4%	-3%
20	CCc1cc2c3c(c(=O)oc2cc1O)CCCC3	i	0.7%	-13%	33%	117%[activator]	-0.2%	1%	u	-8%
21	CN(C)c1ncc2nc(-c3cccs3)c(=O)n(C)c2n1	i	1.4%	8%	i	-8%	-0.4%	58%[activator]	18%	-7%
22	COCCn1c(=O)c(-c2cc(F)cc(F)c2)nc2cnc(Oc3cccc(Cl)c3)nc21	i	-1.1%	5%	13µM*	u	3.1%	7%	-8%	-10%
23	Cc1ccc2nc(N3CCN(C(=O)c4cccs4)CC3)c(C#N)cc2c1	i	0.3%	u	u	25%	3.5%	x	u	-4%
24	CC(=O)N1CCC(C(=O)Nc2nc(-c3ccccc3)ns2)CC1	i	-1.6%	u	10µM*	u	-2.7%	8%	4%	-2%
25	CC(C)C(c1nnnn1Cc1ccccc1)N(CCCO)Cc1cc2cc3c(cc2[nH]c1=O)OCO3 (stereo not drawn)	i	0.1%	-12%	122%	-1%	-0.4%	x	24%	-3%
26	COc1ccc(-c2nc3cnc(OCc4ccccc4)nc3n(CCC#N)c2=O)cc1	i	-1.4%	5%	12%	11%	0.9%	88%[activator]	u	-7%
27	N#CC1=C(N)Oc2cc(N)ccc2C1C1CC=CCC1 (stereo not drawn)	i	-1.8%	2%	34%	-1%	-3.9%	x	2%	0%
28	COc1ccc2cc(C(c3nnnn3C(C)(C)C)N3CCc4ccccc4C3)c(=O)[nH]c2c1 (stereo not drawn)	i	1.4%	u	12%	-21%	0.6%	20%	-12%	-8%
29	CC1Cc2nc(SCC(=O)OCc3ccccc3)n(C)c(=O)c2S1 (stereo not drawn)	x	-1.7%	u	9%	u	-5.7%	x	u	0%
30	CC(=O)N1CCN(C2=Nc3cccc4cccc2c34)CC1	i	-5.4%	-18%	i	17%	-7.0%	-8%	1%	u
31	CN1CCN(C(=O)NC2CCCN2S(=O)(=O)c2ccc(Cl)cc2)CC1 (stereo not drawn)	i	1.2%	7%	3%	-8%	-0.5%	3%	19%	-5%
32	CN(C)c1ncc2nc(-c3ccccc3)c(=O)n(CCC#N)c2n1	i	-2.2%	-26%	327%	29%	-6.9%	38%[activator]	12%	-8%
33	CCc1cc(=O)oc2cc(OC(C)=O)cc(OC(C)=O)c12	i	-2.0%	2%	9%	x	-1.3%	-4%	5%	-8%
34	CCNc1ncc2nc(-c3ccc(OC)cc3)c(=O)n(CCC#N)c2n1	i	1.3%	5%	298%	40%[activator]	0.5%	76%[activator]	3%	3%
35	CC(C)c1cccc2nc3c(c([Si](C)(C)C(C)(C)C)c12)Cn1c-3cccc1=O	x	-1.2%	x	u	-2%	0.7%	x	19%	-4%
36	CCCn1nc(NC(=O)CC(C)C)c2cc3ccccc3nc21	x	-1.3%	-9%	x	-3%	-1.1%	x	11%	x
37	COc1cccc(Cn2c(=O)c(-c3cccs3)nc3cnc(N4CCOCC4)nc32)c1	i	1.6%	32%[activator]	i	0%	0.8%	196%[activator]	27%	0%
38	Cn1cc(-c2nc3cncnc3n(Cc3ccccc3Cl)c2=O)c2ccccc21	i	1.7%	5%	35%	-8%	-1.1%	163%[activator]	-3%	1%
39	CC1CCN(C(c2ccc(N(C)C)cc2)c2nnnn2C(C)(C)C)CC1 (stereo not drawn)	i	-1.3%	-7%	-5%	1%	-1.5%	x	u	-5%
40	CC(C)OCCCn1c(=NC(=O)c2ccncc2)c(C#N)cc2c(=O)n3ccccc3nc21	i	0.4%	-16%	i	3.2µM*	-2.0%	13%	10%	-9%
41	Cc1ccc2cc3c(NC(=O)CC(C)C)nn(C)c3nc2c1	i	-0.5%	0%	-10%	53%[activator]	-0.5%	13%	10%	-1%
42	Cc1ccc([C@@H]2C3COCC=C3C(C#N)=C(N)C2(C#N)C#N)o1 (stereo partly drawn)	i	-10%	u	i	24%	-26%	2%	4%	-6%
43	CCNc1ncc2nc(-c3cc(F)cc(F)c3)c(=O)n(C[C@H]3CCCO3)c2n1	i	-0.1%	3%	36%	3%	-2.2%	35%	9%	0%
44	O=c1c(CCc2ccccc2)nc2cnc(N3CCNCC3)nc2n1C1CC1	i	-1.3%	0%	6%	4%	-2.5%	73%[activator]	u	-8%
45	COc1cccc(Cn2c(=O)c(-c3cc(F)cc(F)c3)nc3cnc(N4CCOCC4)nc32)c1	i	1.4%	5%	112%	-9%	-1.8%	65%[activator]	12%	-7%
46	Cc1ccc(C2C=C(c3ccc4c(c3)OCO4)Nc3ncnn32)cc1 (stereo not drawn)	i	-0.6%	-18%	146%	-2%	0.2%	20%	26%	4%
47	CCn1c(O)c(C=Nc2ccccc2)oc1=S	i	-1.1%	-13%	-10%	-27%	-0.6%	-3%	-5%	-1%

Reformatted with two lines to a compound: part of the list above
Results follow in this order: Rhodamine autofl | BRCT PPI red | ALOX15 inhib | Tau fil binding | HADH2 inh | BRCT inh green | USP2a inhib | HEK293 cAMP cs | DNA Pol III inh
26	COc1ccc(-c2nc3cnc(OCc4ccccc4)nc3n(CCC#N)c2=O)cc1
  i | -1.4% | 5% | 12% | 11% | 0.9% | 88%[activator] | u | -7%
10	CCCOC(=O)C1=C(C)NC2=C(C(=O)CCC2)C1c1cccc(OC)c1OC (stereo not drawn)
  x | -2.2% | 3% | -4% | u | -1.4% | 16% | 13% | -8%
